Source: PubChem BioAssay
Beta cell apopt = inhibitors of cytokine-induced beta cell apoptosis, primary screen, luminescence; INS-1E cytokine-induced death, ATP luminescence, 48 h; percent of positive-control rescue, neutral wells zero; AID 435005, 2010; protection from apoptosis, % (test concentration not listed); 300,000 compounds, 0.8% hits;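 active means all replicates at 75% or more, or half of them and the mean; inconclusive means half reach 75% but not the mean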;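 further: 0% = cytokine-treated negative control wells and 100% = positive control rescue; higher means more ATP so stronger rescue from cytokine killing; wells of about 40 µL received 100 nL stock; the first replicate is given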
Bfl-1 A1 inh = caspase 3/7 activation in MEF A1-2A-BIM cells, primary screen, A1 inhibitor project, cell-based, luminescence, HTS. Caspase-Glo 3/7 luminescence, 3 h; percent of clofoctol response, vehicle zero. 330,000 compounds, 0.066% hits. caspase activation, % (test concentration not listed);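 active means over half of replicate activation scores above 10%, or exactly half above 10 with the replicate mean above 10; inconclusive means replicate mean below 10 yet half the replicates above 10; inactive means over half of replicates below 10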;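 further: wells of about 30 µL received 50 nL stock; many hits fall short of the cut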
UCH37 DUB inh = inhibitors of human UCH37 deubiquitinase, primary screen, biochemical, Ub-AMC cleavage, fluorescence; Ubiquitin carboxyl-terminal hydrolase isozyme L5 (Homo sapiens), Q9Y5K5; purified proteasome/UCH37; inhibition, % (no concentration beside the values); 330,000 compounds, 0.33% hits; AID 588478, 2011;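 active means mean of two replicates above 20%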;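 further: 0% = compound-free wells with enzyme and 100% = wells lacking proteasome; stock transfer was 100 nL into about 20 µL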
Target sequence (Q9Y5K5 whole entry, looked up): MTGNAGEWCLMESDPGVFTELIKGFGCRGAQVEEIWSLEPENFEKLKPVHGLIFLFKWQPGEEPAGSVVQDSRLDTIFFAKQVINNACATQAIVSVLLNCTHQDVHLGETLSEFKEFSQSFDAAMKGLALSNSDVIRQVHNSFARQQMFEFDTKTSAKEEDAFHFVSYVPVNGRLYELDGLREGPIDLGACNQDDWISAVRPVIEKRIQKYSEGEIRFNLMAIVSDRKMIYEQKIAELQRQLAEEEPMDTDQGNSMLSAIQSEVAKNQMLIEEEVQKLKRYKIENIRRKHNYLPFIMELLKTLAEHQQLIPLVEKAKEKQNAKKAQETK
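Material: Human UCH37 enzyme supplied as purified proteasome complex | Schedule: 30 min compound-proteasome preincubation then 25 min substrate reaction, room temperature | Detection: AMC fluorescence from Ub-AMC cleavage, excitation 355 nm, emission 460 nm | Benchmarks: Wells without proteasome as full block, compound-free enzyme plus substrate as uninhibited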
LANA-H2A inh = blockers of LANA interaction with H2A/H2B – biochemical, FP readout, HTS, primary screen; Protein LANA1 (Human herpesvirus 8 type P (isolate GK18)), Q9QR71; cell-free LANA-H2A/H2B peptide, fluorescence polarization; AID 2629, 2010; inhibition, % (no concentration beside the values); 320,000 compounds, 0.6% hits; in the data active means inhibition mostly above about 10%, no sharp cut-off; inactive means mostly below about 6.7%;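 further: stock transfer was 7.5 nL into about 10 µL; 0% = median of vehicle wells and 100% = median of positive control wells; one replicate is shown; the record names a cut of 25% in any replicate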
T cruzi repl = inhibitors of intracellular T. cruzi growth, primary screen, luminescence, NIH3T3 host cells; T. cruzi beta-gal in NIH3T3, 90 h; inhibition, % (test concentration not listed); 300,000 compounds, 1.4% hits; AID 1885, 2009;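 active means mean inhibition across valid replicates above about 55%, limit read from the data; inconclusive means mean below that limit but half or more replicates reach it; inactive means mean below it, under half of replicates reach it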;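 further: signal also drops with host cell toxicity which is not excluded here; 0% = plate median of DMSO wells and 100% = zero luminescence signal; higher percent means less beta-gal luminescence so fewer parasites; stock transfer was 50 nL into about 50 µL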
B2AR ag = beta2AR agonists driving receptor internalization, primary screen, cell-based, FAP fluorogen, flow cytometry. Beta-2 adrenergic receptor (Homo sapiens), P07550. Am2.2-beta2AR cells; reference of the scale not given here. response, % (test concentration not listed). 340,000 compounds, 0.43% hits;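 active means response above a set limit, near 3 SD of response in nonfluorescent compounds, cut at about 42% in these data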;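 further: stock transfer was 100 nL into about 11 µL; a reference agonist was the positive control; negative values mostly stem from fluorescent compounds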
Target sequence (P07550 whole entry, looked up): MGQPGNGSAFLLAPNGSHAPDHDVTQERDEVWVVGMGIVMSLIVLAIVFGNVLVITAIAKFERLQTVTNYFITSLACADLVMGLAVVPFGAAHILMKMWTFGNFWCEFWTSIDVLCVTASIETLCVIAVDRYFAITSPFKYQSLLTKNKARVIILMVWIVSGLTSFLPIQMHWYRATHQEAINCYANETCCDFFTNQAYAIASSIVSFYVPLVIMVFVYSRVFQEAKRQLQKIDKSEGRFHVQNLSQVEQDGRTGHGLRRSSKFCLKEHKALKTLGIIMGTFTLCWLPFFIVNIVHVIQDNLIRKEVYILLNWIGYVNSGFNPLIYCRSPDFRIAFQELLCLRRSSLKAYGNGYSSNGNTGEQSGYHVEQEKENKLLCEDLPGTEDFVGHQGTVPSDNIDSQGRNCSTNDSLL
Calb FLC = C. albicans growth inhibition with fluconazole, primary screen, CaCi-2 strain, Alamar Blue fluorescence | C. albicans CaCi-2 (fluconazole-resistant clinical isolate) + fluconazole, 48 h | growth inhibition, % (concentration not given with the values) | 300,000 compounds, 0.57% hits | AID 1979, 2009;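 active means most replicates above 75%; inconclusive means exactly half above 75%; inactive means most below 75%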;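 further: all wells also contain fluconazole at 8 µg/ml as a sub-toxic cotreatment; 0% = median of DMSO wells and 100% = median of geldanamycin control wells; wells of about 8 µL received 7.5 nL stock; the first replicate is given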
RanGTP-Imp inh = inhibitors of RanGTP-importin-beta interaction, primary screen, biochemical, FRET, CFP-Ran, YFP-importin-beta, homogeneous; Ran GTPase (GTP-bound) - importin-beta complex; 300,000 compounds, 1.1% hits; cell-free CFP-Ran/YFP-importin-beta FRET ratio; inhibition, % (test concentration not listed);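 active means most replicates above 15%; inconclusive means exactly half above 15%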;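 further: 0% = DMSO wells and 100% = Ran loaded with GDP instead of GTP; wells of about 40 µL received 100 nL stock; the first replicate is given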
Numbers without * were called inactive; ? = inconclusive; · = not tested or not shown.

structure	Beta cell apopt	Bfl-1 A1 inh	UCH37 DUB inh	LANA-H2A inh	T cruzi repl	B2AR ag	Calb FLC	RanGTP-Imp inh
COCC(=O)Nc1nc(-c2ccc([N+](=O)[O-])cc2)cs1	12	-0.7	3.8	3.6	-8	-3	-2	-13
COc1ccccc1CNC(=O)C12CC3CC(CC(C3)C1)C2	-9	0.1	-0.3	-2.1	15	-20	-4	?
Cc1ccc(C(=O)NCC(c2ccco2)N2CCCCC2)s1 (stereo unspecified)	-1	0.8	1.3	4.7	·	-5	·	·
COCCCn1cc(C(=O)c2cc(OC)ccc2OCC(=O)Nc2cc(C)on2)cc(C#N)c1=O	-4	0.0	-4.8	12	-1	-1	-1	0.2
CCOC(=O)N1CCN(CC(O)COc2ccc(-c3ccccc3)cc2)CC1 (stereo unspecified)	6	-1.5	4.7	-4.0	-8	-2	1	-1.5
COc1cc(S(=O)(=O)N2CCN(C(=O)c3ccccc3)CC2)c(OC)cc1Br	-3	2.5	0.6	0.2	-4	-9	1	1.9
COc1ccccc1CNS(=O)(=O)c1ccc2c(c1)CC(C)N2C(=O)C1CC1 (stereo unspecified)	9	1.7	2.4	-7.0	5	0	-1	1.3
O=[N+]([O-])c1ccc(/C=[N+](\[O-])[C@@H]2CCCC[C@@H]2/[N+]([O-])=C/c2ccc([N+](=O)[O-])o2)o1	-12	-0.4	17	5.5	39	8	16	-1.1
COc1ccc(Br)cc1CNC(=O)Cc1cccs1	2	1.0	3.0	1.4	6	-14	-4	-3.9
CCCN(CCC)S(=O)(=O)c1ccc(C(=O)Nc2nnc(-c3cccc(OC)c3)o2)cc1	9	-0.4	-149	1.2	54	-1	-1	1.6
CCOc1ccccc1NC(=S)N1CCC(NC(=O)C(C)(C)C)CC1	-2	1.0	0.1	0.3	-14	1	3	-0.2
CCOC(=O)C1CCN(c2c([N+](=O)[O-])c(C(Cl)Cl)nn2-c2ccccc2)CC1	-12	0.1	2.7	-8.0	4	0	50	-2.1
COc1ccc(/C=N/NC(=O)c2cccc(Br)c2)cc1CN1CCOCC1	-2	-0.1	·	-2.1	-4	-2	2	1.2
Cc1ccc(OC(=O)Cn2c(C(F)(F)F)nc3ccccc32)cc1	-1	-0.9	1.3	0.6	·	8	6	-0.7
NS(=O)(=O)c1ccc(NC(=O)CN2CCc3ccccc3C2)cc1	-9	0.7	7.4	4.7	-9	13	-5	3.5
CCN1C(=O)[C@H]2[C@@H](c3ccc(-c4ccc(F)cc4)cc3)N3CCCC[C@@]3(C(=O)OC)[C@H]2C1=O	-1	0.9	0.4	-1.5	23	-4	-8	0.7
O=C(CSc1nnc2ccc(-c3ccco3)nn12)Nc1ccccc1F	·	·	-21	·	-3	-6	-2	0.9
Cc1ccc(C)c(S(=O)(=O)N2CCN(C(=O)Cn3c(=O)cnc4ccccc43)CC2)c1	1	-0.4	0.5	6.1	-1	-5	-9	4.6
CCC(Oc1ccccc1)C(=O)NCc1ccc(S(N)(=O)=O)cc1 (stereo unspecified)	-4	1.0	2.5	-1.3	-2	7	-19	0.6
O=C(NCCc1ccc(F)cc1)C(=O)Nc1cc2c3c(c1)CC(=O)N3CCC2	-4	0.3	1.5	-1.6	3	11	6	-2.8
Cc1nc2nc(C)c(CCC(=O)NCc3ccc4c(c3)OCO4)c(C)n2n1	-4	0.0	1.7	-1.4	-8	4	-14	-0.9
FC(F)(F)c1cccc(-c2cc3ccccc3nc2N2CCCC2)c1	6	2.3	-44	0.0	21	24	1	6.3
Cc1ccc(C(=O)Nc2nnc(S(=O)(=O)N3CCOCC3)s2)cc1	7	0.5	-0.1	2.9	-9	0	-1	1.4
COc1ccc(Cc2nc3ccc(C(=O)NCc4cc(C)no4)cc3o2)cc1OC	-1	-0.3	-3.0	5.4	-1	-8	6	2.4
O=C(COc1ncnc2ccccc12)N1CCOCC1	-3	0.1	0.5	0.2	2	3	-9	-1.7
COc1ccc([N+](=O)[O-])cc1NS(=O)(=O)c1ccccc1	-3	0.4	3.5	1.5	-14	-1	2	7.5
COc1cc2c(cc1OC)CN(Cc1cc(=O)oc3cc(C)c(C)cc13)CC2	-9	0.7	-0.3	-1.3	3	6	10	?
Cc1cc(NC(=O)CCS(=O)(=O)c2ccc3c(c2)NC(=O)C(C)S3)ccc1Br (stereo unspecified)	5	0.0	1.4	-0.9	3	-4	-6	5.5
O=C(Nc1ccc(N2CCOCC2)nc1)c1cccs1	-8	-0.1	1.7	3.4	-8	-4	-9	1.5
O=C1CCC(C(=O)NC2(C(=O)NC3CCCCC3)CCCCC2)N1 (stereo unspecified)	2	0.2	-0.2	0.0	2	-3	-4	5.5
O=C(COc1ccc(C(=S)N2CCCC2)cc1)Nc1ccc(F)cc1	-5	-0.3	2.0	0.1	0	-1	-1	1.7
Cc1ccc2[nH]cc(C(=O)NCc3cccs3)c(=O)c2c1	·	0.6	-0.7	2.8	9	-6	-7	1.5
CCN(CC)S(=O)(=O)N1CCC(C(=O)NCc2ccc(C)cc2)CC1	5	-0.3	2.4	-0.3	3	0	0	-3.2
CCN(CC)CCN(C)C(=O)CCc1nnc(-c2ccc(C)s2)o1	-8	-0.5	-2.4	2.7	57*	5	-7	6.9
CCc1ccc(NC(=O)CN2CCCN(S(=O)(=O)c3ccc(F)cc3)CC2)cc1	-1	0.6	2.3	-3.6	12	-4	6	-1.9
COC(=O)C1=CN(c2cccc(C(F)(F)F)c2)C=C(C(=O)OC)C1c1ccc(O)c(OC)c1	3	0.0	-12	-4.3	18	2	13	2.7
COCCNC(=O)C1CCC(CNS(=O)(=O)c2cccc3nsnc23)CC1 (stereo unspecified)	1	-0.4	1.2	3.1	35	5	-2	1.6
O=C1c2ccccc2C(=O)N1c1ncc(Cc2ccc(Cl)cc2)s1	-6	0.2	3.6	-0.6	·	8	·	·
COc1ccc(C2CC(=O)c3cnc(Nc4cc(C)cc(C)c4)nc3C2)cc1 (stereo unspecified)	-3	0.1	-18	2.6	32	3	9	-1.9
Cc1ccc(N2CC(C(=O)OCC(=O)Nc3cc(C)on3)CC2=O)c(C)c1 (stereo unspecified)	4	0.5	·	2.9	-4	7	4	1.2
Cc1ccc2cc(CCNC(=O)C3CCCC3)c(=O)[nH]c2c1	-7	-0.2	1.9	-3.7	-10	20	9	3.4
Cc1ccc(NC(=O)C2CCCN(S(=O)(=O)c3c(C)noc3C)C2)c(C)c1 (stereo unspecified)	2	0.8	-4.7	1.4	2	1	2	-1.9
Cc1ccc(S(=O)(=O)N2CC=C(C(=O)NC3CC3)CC2)cc1	-3	1.8	0.9	1.1	2	0	-4	3.8
Cc1ccc(OCC(=O)OCC(=O)Nc2ccc3c(c2)OCO3)cc1C	-3	0.0	4.5	-6.1	·	0	·	·
Cc1ccc(CNC(=O)c2ccc(N3CCC4(CC3)CC(c3ccccc3)=NO4)c(NC(=O)c3cccc(C)c3)c2)cc1	18	0.1	·	6.1	14	-3	-10	4.1
COc1ccc(CNC(=O)c2cc3c(=O)n4cccc(C)c4nc3n(CC3CCCO3)c2=N)cc1 (stereo unspecified)	·	0.2	-59	5.4	28	23	-2	77*
COc1ccc(NC(=O)CNC(=O)Cn2cnc3sc4c(c3c2=O)CCCC4)cc1OC	-3	0.5	2.5	0.4	-2	-8	15	1.9
COc1ccc(N2CC(O)=C(c3n(C)c4ccccc4[n+]3C)C2=N)cc1	10	0.8	3.5	·	-3	1	-11	-3.2
FC(F)(F)c1cc(-c2ccccc2)nc(NC2CCCC2)n1	9	-0.5	-45	0.0	24	-12	11	-3.4
O=C(Nc1ccccc1F)c1cccc(C(=O)Nc2ccccc2F)c1	11	0.6	1.1	-1.8	-6	3	7	-0.3

(next part)
structure	Beta cell apopt	Bfl-1 A1 inh	UCH37 DUB inh	LANA-H2A inh	T cruzi repl	B2AR ag	Calb FLC	RanGTP-Imp inh
Cc1cccc(C(C(=O)NC2CCCCC2)N(Cc2cccnc2)C(=O)c2csnn2)c1 (stereo unspecified)	-8	-0.7	-0.8	-0.5	4	-8	3	-1.7
C=CCn1c(SCC(=O)NCCc2ccccc2)nnc1C(C)NC(=O)c1cccs1 (stereo unspecified)	-10	-0.2	2.8	4.1	-9	-8	28	-4.5
COc1ccc(C(C#N)c2cnccn2)cc1OC (stereo unspecified)	1	0.0	1.1	0.8	-34	5	-2	5.2
CCCNC(=O)N1C2=NC(C(=O)OC)=C(C(=O)OC)[C@@H]3N(Cc4ccccc4)c4ccccc4[C@]23C[C@H]1CO	-2	0.7	2.6	-0.5	52	1	-18	-3.4
C/C(=N\NC(=O)c1ccn(C)n1)c1ccc(NC(=O)C2CCC2)cc1	-1	-1.1	·	2.0	0	-2	5	-0.5
Brc1ccc(-c2nnc3sc(CN4CCC5(CC4)OCCO5)cn23)cc1	1	1.3	-2.5	0.8	-18	-9	-15	5.8
COCCn1c(=NC(=O)/C=C/c2ccccc2)sc2cc(NC(C)=O)ccc21	9	0.4	-154	0.7	49	-6	12	7.6
